N370S GC – inhibits or activates N370S mutant glucocerebrosidase; 330,000 tested, 0.092% active; AID 2101; N370S GC spleen homogenate, 4MU-glucoside fluorescence; P04062; Potency, µM (titrated, usually from 59.4 µM), without a hit: at the highest dose activity change, negative = inhibition, usual class: inhibitors; active means well fitted inhibition curve with a large enough effect; inconclusive means small, poorly fitted or top-dose-only effect, or effect the other way, or another doubt; inactive means no such curve, though single readings can be large or run the other way;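 further: 0% = full enzyme activity and -100% = no enzyme basal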
Starred values were filed as active, the others as inactive; ? = inconclusive; & = joins results of further samples. Potency means the concentration at half of the fitted maximal effect. Not all compounds are listed, and most or all hits are left out here.

A first look:
cpd | SMILES | N370S GC
1 | Cc1ccc(S(=O)(=O)c2nc(S(=O)(=O)c3ccccc3)sc2N2CCN(C)CC2)cc1 | -14.5%
2 | O=C(Nc1ccc(S(=O)(=O)Nc2ncccn2)cc1)c1cccnc1 | -1.8%
3 | COc1ccccc1C(=O)NC(=S)NNC(=O)c1sc2ccccc2c1Cl | 5.4%
4 | CC(C)CC(=O)NC(=S)Nc1ccc(N2CCOCC2)cc1 | 16.9%
5 | Cc1ccc(S(=O)(=O)N(C)Cc2ccc(-c3nnco3)cc2)cc1 | -12.9%
6 | O=C(N1CCOCC1)N1CCN(C(=O)N(c2ccccc2)c2ccccc2)CC1 | 2.4%
7 | CN(Cc1nc(-c2ccc3c(c2)OCO3)no1)CC1(N2CCOCC2)CCCCC1 | -20.8%
8 | COc1ccc2oc(C(=O)N3CCc4ccccc43)c(C)c2c1 | 5.4%
9 | COc1cc(CN2CCCC(N3CCc4ccccc4C3)C2)c(Cl)cc1O (stereo unspecified) | -2.5%
10 | Cc1ccc2c(C)c(C(=O)Nc3ccc(S(=O)(=O)Nc4onc(C)c4C)cc3)oc2c1 | 3.6%
11 | O=C(Nc1nnc(-c2ccco2)o1)c1cccc(Cl)c1 | -2.5%
12 | Cn1c(SCC(=O)NCC2CCCO2)ncc(C(=O)Nc2ccc(F)cc2)c1=O (stereo unspecified) | -8.0%
13 | N/C(=N\OC(=O)Cc1ccccc1)c1ccc([N+](=O)[O-])cc1 | 2.3%
14 | N/C(=N\OC(=O)Cc1ccccc1[N+](=O)[O-])c1ccc(Br)cc1 | 9.1%
15 | O=C(NCc1n[nH]c(=S)n1-c1ccc(Cl)c(Cl)c1)c1cccs1 | -2.1%
16 | COc1cccc(-c2nn(C)c3sc(C(=O)N4CCN(c5ccccn5)CC4)cc23)c1 | 6.3%
17 | COc1ccc(-c2nnc(SCC(=O)c3cccs3)o2)cc1 | 1.8%
18 | COC(=O)Cn1ncc(N2C3CC(CC(C)(C)C3)C2C)c(Cl)c1=O (stereo unspecified) | 17.8%
19 | O=C(CN1CCCCCC1)N/N=C/c1cccc(Cl)c1 | -9.5%
20 | c1ccc2sc(SCc3ccc(-c4nnco4)cc3)nc2c1 | 10.8%
21 | O=C(NC(=O)c1ccccc1)Nc1ccc(-c2cnco2)cc1 | 1.2%

All compounds of this part (from the top)
cpd | SMILES | N370S GC
1 | Cc1ccc(S(=O)(=O)c2nc(S(=O)(=O)c3ccccc3)sc2N2CCN(C)CC2)cc1 | -14.5%
2 | O=C(Nc1ccc(S(=O)(=O)Nc2ncccn2)cc1)c1cccnc1 | -1.8%
3 | COc1ccccc1C(=O)NC(=S)NNC(=O)c1sc2ccccc2c1Cl | 5.4%
4 | CC(C)CC(=O)NC(=S)Nc1ccc(N2CCOCC2)cc1 | 16.9%
5 | Cc1ccc(S(=O)(=O)N(C)Cc2ccc(-c3nnco3)cc2)cc1 | -12.9%
6 | O=C(N1CCOCC1)N1CCN(C(=O)N(c2ccccc2)c2ccccc2)CC1 | 2.4%
7 | CN(Cc1nc(-c2ccc3c(c2)OCO3)no1)CC1(N2CCOCC2)CCCCC1 | -20.8%
8 | COc1ccc2oc(C(=O)N3CCc4ccccc43)c(C)c2c1 | 5.4%

The list continues:
cpd | SMILES | N370S GC
9 | COc1cc(CN2CCCC(N3CCc4ccccc4C3)C2)c(Cl)cc1O (stereo unspecified) | -2.5%
10 | Cc1ccc2c(C)c(C(=O)Nc3ccc(S(=O)(=O)Nc4onc(C)c4C)cc3)oc2c1 | 3.6%
11 | O=C(Nc1nnc(-c2ccco2)o1)c1cccc(Cl)c1 | -2.5%
12 | Cn1c(SCC(=O)NCC2CCCO2)ncc(C(=O)Nc2ccc(F)cc2)c1=O (stereo unspecified) | -8.0%
13 | N/C(=N\OC(=O)Cc1ccccc1)c1ccc([N+](=O)[O-])cc1 | 2.3%
14 | N/C(=N\OC(=O)Cc1ccccc1[N+](=O)[O-])c1ccc(Br)cc1 | 9.1%
15 | O=C(NCc1n[nH]c(=S)n1-c1ccc(Cl)c(Cl)c1)c1cccs1 | -2.1%
16 | COc1cccc(-c2nn(C)c3sc(C(=O)N4CCN(c5ccccn5)CC4)cc23)c1 | 6.3%

Continued.
cpd | SMILES | N370S GC
17 | COc1ccc(-c2nnc(SCC(=O)c3cccs3)o2)cc1 | 1.8%
18 | COC(=O)Cn1ncc(N2C3CC(CC(C)(C)C3)C2C)c(Cl)c1=O (stereo unspecified) | 17.8%
19 | O=C(CN1CCCCCC1)N/N=C/c1cccc(Cl)c1 | -9.5%
20 | c1ccc2sc(SCc3ccc(-c4nnco4)cc3)nc2c1 | 10.8%
21 | O=C(NC(=O)c1ccccc1)Nc1ccc(-c2cnco2)cc1 | 1.2%
22 | CCOCCCNC(=O)C(c1ccc(C)cc1)N(Cc1ccc2c(c1)OCO2)C(=O)c1ccccn1 (stereo unspecified) | 4.2%
23 | Nc1nc(Cn2nnc(-c3ccccc3F)n2)nc(N2CCOCC2)n1 | 4.0%
24 | COc1ccccc1NS(=O)(=O)c1cccc(C(=O)N/N=C/c2ccc(N3CCOCC3)cc2)c1 | -17.2%

Additional records:
cpd | SMILES | N370S GC
25 | CCC(C)NC(=O)c1cn(CC)c2cc(N3CCN(C)CC3)c(F)cc2c1=O (stereo unspecified) | -5.2%
26 | O=C(C1CCCC1)N1CCCC(Nc2ccc(F)cc2)C1 (stereo unspecified) | -6.5%
27 | Cc1ccc(N(CC(=O)NC2CCCC2)C(=O)CCCC(=O)Nc2ccccn2)cc1C | 6.7%
28 | Cc1nc(/N=C\c2ccc(N(C)C)cc2)sc1C | -9.2%
29 | O=C(Cc1cccs1)NCC1CCCO1 (stereo unspecified) | -3.8%
30 | COc1ccc(N2CC(C(=O)Nc3cccc(C)n3)CC2=O)cc1 (stereo unspecified) | 7.3%
31 | COc1ccc(OC)c(/C=C2\SC(=S)N(Cc3cccnc3)C2=O)c1 | -2.7%
32 | CCC(=O)NN1CCN(c2ccncc2S(=O)(=O)N2CCCCC2)CC1 | -14.3%

Part of the list above in order of SMILES length, descending.
cpd | SMILES | N370S GC
27 | Cc1ccc(N(CC(=O)NC2CCCC2)C(=O)CCCC(=O)Nc2ccccn2)cc1C | 6.7%
31 | COc1ccc(OC)c(/C=C2\SC(=S)N(Cc3cccnc3)C2=O)c1 | -2.7%
30 | COc1ccc(N2CC(C(=O)Nc3cccc(C)n3)CC2=O)cc1 (stereo unspecified) | 7.3%
26 | O=C(C1CCCC1)N1CCCC(Nc2ccc(F)cc2)C1 (stereo unspecified) | -6.5%

Going on with the list:
cpd | SMILES | N370S GC
33 | COC(=O)COc1ccc(S(=O)(=O)NCCC2=CCCCC2)cc1Cl | -8.2%
34 | CCC(C)C1C(C#N)=C(N)Oc2n[nH]c(C)c21 (stereo unspecified) | -1.2%
35 | COc1ccc(C(=O)CSc2nnc3ccc(-c4ccccn4)nn23)cc1 | 7.0%
36 | CCCC1CC(CSC(=N)N)OC1=O (stereo unspecified) | 5.6%
37 | CCC(C)Nc1nc(CN2CCOCC2)nc2sc3c(c12)CCC3 (stereo unspecified) | 14.7%
38 | O=C(CSc1nnc(Nc2ccccc2)s1)Nc1cccc(S(=O)(=O)N2CCCCC2)c1 | 16.7%
39 | CCNc1cc2oc(=O)c(CN3CCOCC3)c(C)c2cc1C | ?
40 | CNC(=O)COc1coc(CN2CCN(c3ccc(OC)cc3)CC2)cc1=O | 0.2%

(listing goes on)
cpd | SMILES | N370S GC
41 | CCc1ccc(S(=O)(=O)NCCc2cn3ccsc3n2)s1 | -0.8%
42 | COc1ccc(CN2C(=NC(=O)C3CC3)SC3CS(=O)(=O)CC32)cc1OC (stereo unspecified) | 1.3%
43 | Cc1ccc(N(CC(=O)N2CCOCC2)S(C)(=O)=O)cc1 | 19.0%
44 | Cc1ccccc1C(=O)N1CCC(C(=O)Nc2ccc3c(c2)OCCO3)CC1 | 2.1%
45 | CN(C)S(=O)(=O)c1cccc(NC(=S)NCCc2ccccn2)c1 | -2.9%
46 | O=C(Nc1ccc(Cl)c(Cl)c1)c1ccccc1NC(=O)C1CC=CCC1C(=O)O (stereo unspecified) | -4.9%
47 | Cc1cccc(NC(=O)c2ccc3ccccc3n2)c1C | ?
48 | CC(=O)c1ccc(OCCCC(=O)OCC(=O)N2CCN(c3ccccc3)CC2)cc1 | 0.6%

(next part)
cpd | SMILES | N370S GC
49 | CC(C)(C)NC(=O)c1cccnc1Sc1ccccc1 | 4.6%
50 | C/C(CC(=O)Nc1cccc2c1CCCC2)=N\NC(=O)COc1ccccc1 | 24.4%
51 | COC(=O)c1cc2c(ccn2C)n1C | -0.7%
52 | Cc1nn(C(C)C(=O)NCc2cccs2)c(C)c1[N+](=O)[O-] (stereo unspecified) | -2.1%
53 | O=C(NCC1CCCCN1)c1cc(OCC(F)(F)F)ccc1OCC(F)(F)F (stereo unspecified) | -3.8%&2.4%&2.2%&13.0%
54 | O=C1CN(C(=O)CSc2ccc(-c3ccc(F)cc3)nn2)c2ccccc2N1 | -5.9%
55 | Cc1ccc(/C=N/NC(=O)c2ccc3nc[nH]c3c2)s1 | 0.4%
56 | Cc1ccccc1-n1nnnc1SCc1cc(=O)n2ccsc2n1 | 18.8%

Following part:
cpd | SMILES | N370S GC
57 | NNC(=O)C1CCCN1S(=O)(=O)c1ccc(Cl)cc1 (stereo unspecified) | ?
58 | COc1ccccc1N1CCN(Cc2cc3c(cc2Br)OCCO3)CC1 | -5.9%
59 | COc1ccc(-n2nnnc2/C=C\Nc2ccc(C)cc2)cc1 | 4.5%
60 | COc1cccc(NC(=O)Cn2cc3c(n2)CCCCC3)c1 | 4.0%
61 | CN(C)c1ccc(Nc2c3c4c(cccc4n(C)c2=O)C(=O)c2ccccc2-3)cc1 | -6.6%
62 | CCn1c(CNc2ccc(F)cc2)nnc1SCC(=O)Nc1ccc(OC)cc1OC | -2.4%
63 | Cc1cc(C(C)(C)C)ccc1OC(=O)C1=CC=CN2CCS(=O)(=O)N=C12 | 4.8%
64 | COc1ccccc1NC(=O)CCS(=O)(=O)c1ccc2c(c1)NC(=O)C(C)S2 (stereo unspecified) | -28.4%

(next part)
cpd | SMILES | N370S GC
65 | O=C(C1CCN(S(=O)(=O)c2ccc(F)cc2)CC1)N1CCOCC1 | -2.7%
66 | NC(N)=N/N=C/c1ccc(OS(=O)(=O)c2ccccc2)cc1 | ?
67 | Cc1ccc(S(=O)(=O)Oc2ccc(/C=N/NC(=O)c3cccnc3)cc2)cc1 | -2.5%
68 | CC(NC(=O)C1CCCN1C(=O)OCc1ccccc1)c1ccccc1 (stereo unspecified) | 4.9%
69 | Cn1cc(/C=C/C(=O)N2CCCC(C(=O)c3cccc4ccccc34)C2)cn1 (stereo unspecified) | 5.5%
70 | Cc1cccc(C)c1NC(=O)N1CCN(C2CCCCC2)CC1 | -8.9%
71 | CCOc1ncccc1C(=O)N(C)CC(=O)Nc1ccc(C)cc1 | 3.0%
72 | Cc1ccc(S(=O)(=O)N2CCCC2C(=O)NCc2ccncc2)cc1 (stereo unspecified) | 2.1%

Following part.
cpd | SMILES | N370S GC
73 | CCOCC(=O)NCc1ccc2c(c1)OCO2 | -12.9%
74 | CCC(=O)N1CCc2cc(Br)cc(S(=O)(=O)N3CCC(C(=O)NC(C)C)CC3)c21 | -3.6%
75 | COc1cc2c(OC(C)=O)c3c(c(-c4ccc5c(c4)OCO5)c2cc1OC)C(=O)OC3 | 27.6%
76 | CCC/C=C1/CCCOC(C(=O)NCc2ccccn2)(C(F)(F)F)C1 (stereo unspecified) | 3.6%
77 | CCOC(=O)c1ccc(NC(=O)CCC(CC)C(=O)O)cc1 (stereo unspecified) | -18.0%
78 | Cc1ccc(-c2nc3ccccc3c(=O)n2NC(=S)N(C)C)cc1 | 6.4%
79 | O=C(COC(=O)/C=C/c1ccc(Cl)cc1)NCCC1=CCCCC1 | 4.4%
80 | CC1=CC(c2ccc(Cl)cc2)n2nc(NC(=O)c3ccccc3)nc2N1 (stereo unspecified) | -7.2%
81 | CCOc1ccccc1CNS(=O)(=O)c1csc(C(N)=O)c1 | -7.6%
82 | O=C(c1cccs1)N1CCN(C2CCN(Cc3ccccc3)CC2)CC1 | -14.9%
83 | CN(c1c(C#N)c(C(F)(F)F)nn1C)N(S(C)(=O)=O)S(C)(=O)=O | 7.0%
